MT1-MMP promoter – inhibitors of MT1-MMP promoter transcription, cell-based, luciferase reporter, luminescence (AID 618) | actives 0.62% (n = 87,000) | MT1-MMP promoter luciferase reporter cells, luminescence | calls from a first round at 10 µM; hits with a dose series show EC50 in µM;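 active = over half of the reporter light lost at 10 µM or EC50 under 50 µM; inactive = the rest and hits that failed the dose series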;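 note: actives suppress MT1-MMP promoter-driven transcription so potencies describe inhibitors; HT1080 fibrosarcoma cells; overnight exposure; toxic or luciferase-blocking compounds were not removed from the actives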
Hsc70 – Hsc70 inhibitors, probe displacement, primary screen, biochemical, fluorescence polarization (AID 568); 83,000 tested, under 10 active; one-dose displacement, % at 20 µM; IC50 in µM for titrated hits; Hsc70 fluorescence polarization, probe displacement; higher % means a stronger effect; strong numbers were not always called active;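 active = displacement above 50% without optical interference and an IC50 on retest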;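 note: ATPase domain with a fluorescein-tagged ATP probe; 0% = vehicle and 100% = excess ADP; read after one hour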
WNV NS2B-NS3 inh – inhibitors of West Nile virus NS2B-NS3 protease | AID 577 | P06935 | WNV NS2B-NS3 protease, fluorogenic substrate Ex360/Em465; stronger effect = lower value | actives 0.18% (n = 65,000) | z-score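 (tested at a level between 10 and 100 µM)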;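 active = z-score at -3 or under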;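 note: score is relative to mean and spread of the compound wells of a plate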
Target sequence (P06935 1371-1501 limits assumed): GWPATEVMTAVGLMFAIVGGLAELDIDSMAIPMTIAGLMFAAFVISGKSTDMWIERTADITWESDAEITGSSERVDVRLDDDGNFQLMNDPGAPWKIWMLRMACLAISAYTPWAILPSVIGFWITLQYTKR
Target sequence (P06935 1502-1679 limits assumed): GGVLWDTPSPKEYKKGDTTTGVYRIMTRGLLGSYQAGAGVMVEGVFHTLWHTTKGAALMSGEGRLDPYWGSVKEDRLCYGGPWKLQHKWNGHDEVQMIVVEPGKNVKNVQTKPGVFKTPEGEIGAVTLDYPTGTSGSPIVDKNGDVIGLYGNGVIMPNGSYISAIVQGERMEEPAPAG
* hit, by the source's call; i = inactive; · = not tested or not shown; + = active, no number.

Below each SMILES – MT1-MMP promoter	Hsc70	WNV NS2B-NS3 inh
COC(=O)C1(c2ccccc2)NC(c2cccs2)C2C(=O)N(c3ccccc3)C(=O)C21 (stereo unspecified)
  i	-1.2%	·
O=C1NC(Cc2c[nH]c3ccccc23)C(=O)N1CCOc1ccccc1 (stereo unspecified)
  i	-1.9%	-0.48
Nc1cc(N)nc(SCCOc2ccccc2F)n1
  i	-2.7%	-0.35
Cc1cc(C)c2c(CC(=O)Nc3nccs3)coc2c1
  i	1.3%	-0.05
OC(CN1C2=NCCN2c2ccccc21)c1ccc2c(c1)OCO2 (stereo unspecified)
  i	-7.9%	-1.41
CCSC1=N/C(=C\c2ccc(C(=O)O)cc2)C(=O)S1
  i	4.9%	-1.51
Cc1ccc(C(=O)Nc2ccc3c(c2)OCCO3)o1
  i	1.3%	·
CCCCNc1cc(C)oc(=O)c1C(C)=O
  i	-1.9%	-0.53
Cc1ccc(S(=O)(=O)N(C)CC(=O)Nc2cccc(C)n2)cc1
  i	-1.3%	0.26
COc1cccc(C2OC(=O)c3ccccc3N2C(C)=O)c1OC(C)=O (stereo unspecified)
  i	4.1%	·
O=C(O)CCc1ccc(-c2ccccc2)n1CC(=O)O
  i	8.0%	0.91
COc1ccc(S(=O)(=O)c2ccc(OC)cc2)cc1
  i	3.4%	·
O=C(Nc1c(C(=O)Nc2ccccc2)cnn1-c1ccccc1)c1ccco1
  i	-0.6%	0.09
Cc1c(NS(=O)(=O)c2ccc3c(c2)CCN3C(=O)C2CC2)c(=O)n(-c2ccccc2)n1C
  i	-1.6%	-1.25
COc1ccc(NC(=O)C2CCCO2)cc1 (stereo unspecified)
  i	3.6%	·
O=S(=O)(NCCOCC(F)(F)C(F)F)c1ccc2oc3ccccc3c2c1
  i	-0.5%	-1.05
Cn1c(CN2CCCC2)nc2cc(NC(=O)c3ccco3)ccc21
  i	-6.1%	0.25
COc1ccc(-c2nnc3sc(-c4ccc(Br)o4)nn23)cc1OC
  i	-2.7%	-0.32
Cc1cc(NC(=O)CSc2ccc(-c3ccccc3)nn2)no1
  i	1.3%	·
Nc1c(C(=O)c2ccc(Br)s2)oc2ccccc12
  i	-7.0%	0.13
Clc1ccccc1OCCn1ccnc1
  i	-2.3%	-0.56
COCCCN1C(=O)C(=O)/C(=C(/O)c2ccc(OC)cc2)C1c1cccc(OC)c1 (stereo unspecified)
  i	2.0%	-0.65
NC(N)=NC(N)=NCCc1ccccc1
  i	-0.9%	-0.01
COc1cccc(C(C(=O)NC(C)(C)C)N(C(=O)CCC(=O)Nc2cc(C)on2)C2CC2)c1OC (stereo unspecified)
  i	-0.7%	-0.22
CCn1c(COc2cccc(C)c2)nnc1SCC(=O)CC(=O)Nc1ccccc1OC
  i	-7.3%	-1.16
CCOC(=O)c1c(C)[nH]c2c1cc(O)c1ccccc12
  i	0.2%	·
Cc1cccn2c(=O)c3cc(C(=O)N4c5ccccc5CC4C)n(C)c3nc12 (stereo unspecified)
  i	22.5%	-0.98
Cn1c(SCC(=O)Nc2ccccc2)nc(O)cc1=O
  i	-3.1%	-1.04
Cc1nc2scc(-c3ccco3)c2c(=O)n1/N=C/N(C)C
  i	-2.1%	0.79
Cc1noc(/C=C/c2ccco2)c1S(=O)(=O)N1CCC(C(=O)N2c3ccccc3CC2C)CC1 (stereo unspecified)
  i	-26.9%	-1.18

Among those listed so far, 2 have a COOH group.
Below each SMILES – MT1-MMP promoter	Hsc70	WNV NS2B-NS3 inh
CCSC1=N/C(=C\c2ccc(C(=O)O)cc2)C(=O)S1
  i	4.9%	-1.51
O=C(O)CCc1ccc(-c2ccccc2)n1CC(=O)O
  i	8.0%	0.91

New compounds follow:
Below each SMILES – MT1-MMP promoter	Hsc70	WNV NS2B-NS3 inh
N#Cc1c(-c2ccco2)nc(NCC2CCCO2)[nH]c1=O (stereo unspecified)
  i	-2.8%	-0.24
CCc1ccc2oc(-c3cc(N=Cc4cccc(OC)c4O)ccc3O)nc2c1
  +	-1.0%	0.88
O=S1(=O)N=C(Nc2ccc(S(=O)(=O)N3CCCCC3)cc2)c2ccccc21
  i	4.1%	-0.87
CCN1CCN(C(=O)c2sc3nc(C)nc(N4CCC(C)CC4)c3c2C)CC1
  i	-3.6%	-0.53
CCCN(C(=O)c1ccco1)c1nnc(-c2ccncc2)s1
  i	-2.3%	·
CCC(CO)NCc1ccc(OC2CCCC2)cc1 (stereo unspecified)
  i	3.6%	·
COc1ccc(C)cc1S(=O)(=O)Nc1cccnc1
  i	0.6%	-0.16
COCCCNC(CC(=O)Nc1ccc(OC)cc1OC)C(=O)O (stereo unspecified)
  i	-0.3%	-0.69
Cc1ccc(NC(=O)C2CCN(S(=O)(=O)c3cccs3)CC2)cc1C
  i	-5.7%	·
Cc1cccc(NC(=O)CN2C(=O)COc3ccc(Cl)cc32)c1C
  i	2.2%	-0.96
COc1ccc(N(CC(=O)NCc2ccco2)S(=O)(=O)c2ccc(OC)c(OC)c2)cc1
  i	7.8%	-0.59
O=c1cc(N2CCN(c3ccccc3)CC2)[nH]c(=O)n1C1CCCCC1
  i	-3.8%	0.46
COC(=O)c1ccc(C(=O)OC)c(NS(C)(=O)=O)c1
  i	5.9%	2.57
Cc1ccccc1NS(=O)(=O)c1ccc(C2CNC(=O)C2)cc1 (stereo unspecified)
  i	-4.1%	-0.28
CCC(C)(C)n1nnnc1C(c1ccc(C)cc1)N(Cc1ccco1)Cc1cccs1 (stereo unspecified)
  i	-1.1%	·
O=C(NCCN1CCCC1)c1ccc2c(c1)N(Cc1ccc(F)cc1)C(=O)c1ccccc1S2=O (stereo unspecified)
  i	-5.8%	-0.67
O=C(c1ccc2c(c1)OCCO2)C1CCN(S(=O)(=O)c2ccc(F)cc2)CC1
  i	-1.0%	1.97
O=C(CSc1nc2ccccc2c(=O)[nH]1)N1CCN(S(=O)(=O)c2ccccc2)CC1
  i	-7.1%	·
COc1ccc(-n2c(NCCN(C)C)nc3sc4c(c3c2=O)CCCCC4)cc1
  i	-3.4%	·
Cc1ccc(S(=O)(=O)N2CCN(C(=O)CN3CCCC3)C2)cc1
  i	-3.9%	-0.82
O=C(O)c1cc(-c2ccccc2Cl)n[nH]1
  i	-0.7%	0.08
Cc1ccc(CNC(=O)C2CCCCC2C(=O)O)cc1 (stereo unspecified)
  i	-4.0%	0.44
O=C(c1ccc(CS(=O)(=O)c2ccc(Br)cc2)o1)N1CCN(C2CCCCC2)CC1
  i	2.0%	-0.48
Cc1cc(C)n(/N=C/c2c[nH]c3ccccc23)c(=O)c1C#N
  i	-5.4%	·
Cc1ccc2c(c1)C1CN(C)CCC1N2CC(=O)N(C)c1ccccc1 (stereo unspecified)
  i	3.7%	1.91
COc1ccc2[nH]c(C)c(C(=O)CN3CCN(C/C=C/c4ccccc4)CC3)c2c1
  i	-0.2%	·
O=C(COC(=O)c1cccs1)c1ccccc1
  i	-0.3%	-0.34
O=C(CC1SC(N2CCCCC2)=NC1=O)Nc1cccc(C(F)(F)F)c1 (stereo unspecified)
  i	-4.0%	·
Nc1nc(-c2ccccc2)cs1
  i	0.7%	·
COc1ccccc1Oc1ccccc1C(=O)O
  i	-3.1%	·
CCCCn1c(/N=C/c2c[nH]c3ccccc23)nc2ccccc21
  i	-1.2%	·
CN(CCCNC(=O)C1CCN(S(=O)(=O)c2cccc3nsnc23)CC1)Cc1ccccc1
  i	2.8%	1.52
O=c1[nH]nc(Cc2ccccc2)c2ccccc12
  i	5.4%	·
O=C(NCc1ccc2c(c1)OCO2)c1ccc(NC(=O)C2CCCO2)cc1 (stereo unspecified)
  i	-0.1%	0.31
Cc1ccc(S(=O)(=O)N2CCCN(S(=O)(=O)c3ccc(C(F)(F)F)cc3)CC2)cc1
  i	4.3%	1.3
CCC(c1nnnn1CCOC)N1CCN(Cc2ccccc2)CC1 (stereo unspecified)
  i	2.1%	0.56
COc1cccc(-c2nnc(SCC(=O)OC(C)C)n2N)c1
  i	-5.8%	-1.56
CCc1ccc2[nH]c(=O)c(CN(CCCN3CCOCC3)C(=O)Nc3ccccc3)cc2c1
  i	-3.2%	0.59
O=C(c1cccc(Cl)c1)N1CCN(Cc2ccccc2F)CC1
  i	-1.9%	0.74
Cc1ccc2[nH]c(=O)c(CN(CC3CCCO3)S(=O)(=O)c3cccc4nsnc34)cc2c1 (stereo unspecified)
  i	-3.6%	-0.04

In the list so far, these have a CF3 group:
Below each SMILES – MT1-MMP promoter	Hsc70	WNV NS2B-NS3 inh
O=C(CC1SC(N2CCCCC2)=NC1=O)Nc1cccc(C(F)(F)F)c1 (stereo unspecified)
  i	-4.0%	·
Cc1ccc(S(=O)(=O)N2CCCN(S(=O)(=O)c3ccc(C(F)(F)F)cc3)CC2)cc1
  i	4.3%	1.3

Compound profiles, as listed above:
O=C(c1cccc(Cl)c1)N1CCN(Cc2ccccc2F)CC1 reads MT1-MMP promoter: i; Hsc70: -1.9%; WNV NS2B-NS3 inh: 0.74
O=C(NCc1ccc2c(c1)OCO2)c1ccc(NC(=O)C2CCCO2)cc1 (stereo unspecified) reads MT1-MMP promoter: i; Hsc70: -0.1%; WNV NS2B-NS3 inh: 0.31

(list continues)
Below each SMILES – MT1-MMP promoter	Hsc70	WNV NS2B-NS3 inh
COc1ccc(OC)c(NC(=O)CSc2nc(N)c(-c3ccccc3)c(=O)[nH]2)c1
  i	0.3%	-1.13
CCOC(=O)CSc1nnc(Cc2ccc(OC)cc2)n1-c1ccccc1
  i	0.7%	·
CCc1nnc(NC(=O)CSc2nc3ccccc3s2)s1
  i	4.0%	-0.17
COc1ccc(N2CCN(C(=O)CSc3ccccc3)CC2)cc1
  i	2.2%	-0.4
COc1ccc(NS(=O)(=O)c2cccc(C(=O)OCC(=O)Nc3cc(C)on3)c2)cc1
  i	2.5%	·
C=CCn1c(Cc2cccs2)nnc1SCC(=O)Nc1ccc(OC)c(OC)c1
  i	2.4%	-0.1
Cc1nnc2sc(-c3cccc(NC(=O)c4ccc(-c5cccc(Cl)c5)o4)c3)nn12
  i	-1.5%	0.34
COc1ccc2cc(C(=O)NCC(=O)O)sc(=O)c2c1OC
  i	1.7%	·
COc1ccc(C2C(C#N)=C(C)NC3=C2S(=O)(=O)c2ccccc23)cc1 (stereo unspecified)
  i	3.0%	·
COC(=O)c1sc(NC(=O)COc2ccc(C)cc2)nc1C
  i	-1.4%	·
CCOC(=O)c1oc2cccc(O)c2c1CN1CCOCC1
  i	-1.0%	-0.71
CN(C)CCN(C)Cc1ccc2c(c1)Cc1ccccc1-2
  i	-4.5%	-0.72
Cc1nnc(NC2(C(F)(F)F)C(=O)Nc3c2c(=O)n(C)c(=O)n3C)s1 (stereo unspecified)
  i	-2.6%	0.04
Cn1c(=O)n(C/C=C/c2ccccc2)c(=O)c2c1nc1n2CCCN1c1ccc(F)cc1
  i	-9.0%	0.65
O=C(CCN1C(=O)COc2ccccc21)NCc1ccco1
  i	-5.0%	-0.48
O=C(Nc1ccc2c(c1)OCO2)C1CCCN(c2nc3ccccc3s2)C1 (stereo unspecified)
  i	7.4%	-0.52
Cc1cc(C)n2nc(SCn3nnc4ccccc4c3=O)nc2n1
  i	0.2%	-0.1
Cc1cc(C(=O)CSc2ccc(Cl)cc2)cc(C)c1OC(=S)N(C)C
  i	0.8%	·
CN(C)c1ccc(C(=S)N2CCOCC2)cc1
  i	2.4%	0.97
COc1ccc(-n2c(Cc3cccn3C)nnc2SCC(=O)Nc2cccc(F)c2)cc1
  i	5.8%	0.22
N#Cc1cccc(NC(=O)NCCc2c[nH]c3ccccc23)c1
  i	1.2%	-1.9
CCC(C)(C)NC(=O)C(c1ccco1)N(C(=O)c1csnn1)c1cccc(F)c1 (stereo unspecified)
  i	0.5%	-0.42
Brc1ccc(-c2noc(COc3ccc4c(c3)CCC4)n2)o1
  i	-4.8%	-0.27
CCOC(=O)N1CCN(C(=O)c2cnsn2)CC1
  i	-0.1%	-0.16
COc1ccc(CNc2ncnc(N)n2)cc1
  i	-3.5%	·
CC(C)c1nc(SCC(=O)Nc2ccc3c(c2)OCCO3)c2c(=O)n(C)c(=O)n(C)c2n1
  i	2.2%	-1.32
N#Cc1nc(-c2ccc(OCc3ccccc3)cc2)oc1NCCCN1CCOCC1
  i	2.2%	0.3
CCOc1cc(-c2noc(CCC(=O)N3CCOCC3)n2)ccc1OC
  i	-8.4%	1.09
Cc1ccc(S(=O)(=O)N2CCCC2C(=O)n2nc(C)cc2C)cc1 (stereo unspecified)
  i	-6.9%	-1.06
Cc1ccc(-n2nnc3c(=O)n(CC(=O)NCC4CCCO4)cnc32)cc1 (stereo unspecified)
  i	-0.3%	0.45
O=C(c1ccc(S(=O)(=O)N2CCCC2)cc1)N1CCCc2ccccc21
  i	6.0%	-0.11
CCSc1nc2nc(C)cc(C)n2n1
  i	-2.7%	0.53
CS(=O)(=O)NCCSCc1c(F)cccc1Cl
  i	0.1%	-0.67
Cc1ccc2oc(=O)n(CC(=O)O)c2c1
  i	-0.3%	-0.65
O=C(CCCCCn1c(=O)[nH]c2ccsc2c1=O)N1CCN(C2CCCCC2)CC1
  i	4.5%	-0.34

From PubChem
